Bioassay records as filed in PubChem BioAssay.
ugtP null kill – compounds lethal to S. aureus RN4220 ugtP deletion mutant; OD600 growth, 16 h; some inactives read as strong as hits; growth inhibition, % (test concentration not listed); 330,000 tested, 0.54% active; AID 1259309;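 active means z-score under -3 and OD600 up to 0.15 on both plates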;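 further: plate controls were untreated wells for no effect and antibiotic for full effect; wells of about 80 µL received 100 nL stock; the first replicate is given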
RN4220 kill – kills Staphylococcus aureus RN4220; 330,000 tested, 0.33% active; inhibition, % (test concentration not listed); S. aureus RN4220 growth, OD600, 16 h;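 active means z-score of -3 or lower and OD600 up to 0.18 on both plates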;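 further: plate controls were untreated cells for no effect and reference antibiotic for full effect; stock transfer was 100 nL into about 80 µL; one replicate is shown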
BJeLR lethal – kills HRASV12-expressing BJeLR cells; inhibition, % (concentration not given with the values); 300,000 tested, 0.17% active; BJeLR (HRASV12) viability, CellTiter-Glo ATP luminescence, 48 h; reference of the scale not given here; AID 1554;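 active means replicate mean above 50%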;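 further: 50 nL library stock added to about 25 µL; numbers are from one replicate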
Mtb hypoxia inh – inhibitors of hypoxia-regulated fluorescent reporter in Mycobacterium tuberculosis | M. tuberculosis hypoxia-regulated fluorescent reporter, fluorescence | fluorescence inhibition, % (test concentration not listed) | 300,000 tested, 0.1% active | AID 1159583;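 active means 35 to 45% if threefold the growth effect, above 45% if 1.5-fold the growth effect; inactive means the rest, general growth blockers included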;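 further: wells of about 50 µL received 100 nL stock; 0% = vehicle wells and 100% = reference inhibitor wells; whole bacteria with a GFP reporter of the hypoxia response; strong numbers were not always called active; many hits fall short of the cut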
Bead autofluor – compound fluorescence in toxin protease inhibitor counterscreen. compound autofluorescence counterscreen, microsphere flow cytometry; active compounds read high. 360,000 tested, 3.1% active. fluorescence intensity (concentration not given with the values). AID 624483;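 active means at least 3 SD above the mean of all compounds, about 16000 in these data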;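 further: 100 nL of 1 mM stock went into each well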
PrP 5UTR inh – suppresses PrP 5' UTR mRNA reporter expression. cell-based PrP 5' UTR mRNA reporter, plate reader. inhibition, % (test concentration not listed). 340,000 tested, 0.35% active;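 active means every replicate at 50% or more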;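 further: 0 = median of the neutral control wells; tested in H4 reporter cells; numbers are from one replicate; inactives centre near -14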
Mtb hypoxia inh growth – also measured in Mtb hypoxia inh; calls as there; growth inhibition, %; measured here: M. tuberculosis growth (absorbance);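 0% = vehicle and 100% = reference antibiotic; read after six days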
* = called active by the depositor; nt = no result given.

1	CC(=NNc1ccc(C(F)(F)F)cn1)c1ccncc1
2	CCN1CCCC1CNC(=O)c1cc2cc(OC)c(OC)cc2[nH]1 (stereo unspecified)
3	CCOc1ccc(NC(=O)c2ccc(N3CC4CC(C3)c3cccc(=O)n3C4)c(NC(=O)c3cccnc3)c2)cc1 (stereo unspecified)
4	CN(C)CCN(C(=O)c1ccccc1Cl)c1nc2c(Cl)cccc2s1
5	COC(=O)c1cc(C#N)c(N2CC(C)OC(C)C2)nc1C (stereo unspecified)
6	FC(F)(F)c1nc(NCC2CCCO2)c2nnn(Cc3ccccc3Cl)c2n1 (stereo unspecified)
7	COc1cccc(N2CCN(C(=O)c3ccc(CS(=O)Cc4ccc(C)cc4)o3)CC2)c1 (stereo unspecified)
8	COc1ccc(-c2nn(C)c3sc(C(=O)NCc4ccco4)cc23)cc1OC

assay / entry,1,2,3,4,5,6,7,8
ugtP null kill,1,9,1,-10,-3,-2,40,-16
RN4220 kill,-2.7,1.6,4.8,-3.0,6.8,2.5,-8.1,13
BJeLR lethal,nt,8,9,7,7,-1,-3,4
Mtb hypoxia inh,0,-1,4,8,12,1,-8,3
Mtb hypoxia inh growth,14,-3,3,9,7,6,-10,6
Bead autofluor,nt,4692,5863,7652,3518,3511,5678,4448
PrP 5UTR inh,nt,-26,-5,-5,-16,6,-2,-3

9	O=[N+]([O-])c1ccc(O)c(/C=N/NC2=NS(=O)(=O)c3ccccc32)c1
10	Cc1ccccc1OCC(=O)Nc1ccc2c(c1)OCO2
11	O=C(CSc1nnc(-c2cccs2)n1-c1ccccc1)NCC1CCCO1 (stereo unspecified)
12	O=C(NCc1cccs1)c1ccc(N2CCCC2=O)cc1
13	Cc1noc(C)c1S(=O)(=O)N1CCC(C(=O)N2CCN(c3ccc(F)cc3)CC2)CC1
14	Cc1ccc(NC(=O)c2cc(-c3cc(C)c(C)cc3O)n[nH]2)cc1C
15	CCOc1ccc(Cl)cc1CNCCCSc1ncccn1
16	O=S(=O)(NCCCc1ccccc1)c1ccc(F)c(F)c1

assay / entry,9,10,11,12,13,14,15,16
ugtP null kill,nt,5,-5,7,-3,11,1,-5
RN4220 kill,nt,17,2.5,-1.2,-3.4,2.7,5.2,0.5
BJeLR lethal,6,-1,0,-1,5,-11,1,-17
Mtb hypoxia inh,nt,5,0,nt,nt,-7,19,15
Mtb hypoxia inh growth,nt,2,-1,nt,nt,-6,10,3
Bead autofluor,2644,11269,4039,3598,nt,3525,4341,6638
PrP 5UTR inh,7,-48,-18,-23,nt,-2,-80,-12

17	CCN(CC)c1ccc(C2C(C(=O)OC(C)C)C(=O)CC(C)(O)C2C(=O)OC(C)C)cc1 (stereo unspecified)
18	COCCN(C(=S)Nc1cccc(OC)c1)C(C)c1cccs1 (stereo unspecified)
19	CC(=O)Nc1ccc(S(=O)(=O)N2c3ccc(F)cc3CCC2C)cc1 (stereo unspecified)
20	Cc1ccc(-n2nnnc2SC(C)C(=O)Nc2ccc(Cl)cn2)cc1 (stereo unspecified)
21	O=C(NCc1ccco1)c1sc2cc(Cl)ccc2c1Cl
22	CN1CCN(C=Nc2c(C#N)cnn2Cc2ccccc2)CC1
23	C#CCOCCOCCOCCNc1nc(N2CCN(C(=O)C([C@@H](C)CC)n3cc(C(N)CC(C)C)nn3)CC2)nc(N2CCN(C(=O)[C@H](CCC(=O)O)n3cc(C(N)CC(C)C)nn3)CC2)n1 (stereo partly specified)
24	O=c1cnnc(Nc2ccccc2F)[nH]1

assay / entry,17,18,19,20,21,22,23,24
ugtP null kill,-2,2,-18,0,39,0,nt,-6
RN4220 kill,-2.0,12,8.7,3.4,8.2,2.8,nt,7.7
BJeLR lethal,-10,-10,32,-4,-3,nt,-5,2
Mtb hypoxia inh,7,8,1,0,-1,3,nt,13
Mtb hypoxia inh growth,5,6,-2,9,9,-1,nt,11
Bead autofluor,4224,2011,nt,8995,6686,nt,3397,4722
PrP 5UTR inh,-3,-20,-14,-11,-26,nt,-25,-18

25	Cc1cc(C)c(C(CC(=O)c2cccs2)C(C#N)C#N)c(C)c1 (stereo unspecified)
26	COc1cc(C2NC(=O)N(C)C(C)=C2C(=O)OCc2ccccc2)cc(Br)c1O (stereo unspecified)
27	O=C1CCCCC1(CCc1ccncc1)CCc1ccncc1
28	COc1cc(Cl)c(S(=O)(=O)NCc2ccccn2)cc1Cl
29	COc1ccc(N2CCN(C(=S)Nc3ccccc3)CC2)cc1
30	CC(CNC(=O)c1ccco1)NC(=O)c1ccco1 (stereo unspecified)
31	COc1ccccc1NC(=O)CSc1nnc(-c2ccoc2C)o1
32	COC(=O)C(Cc1c[nH]c2ccccc12)NC(=O)c1cccs1 (stereo unspecified)

assay / entry,25,26,27,28,29,30,31,32
ugtP null kill,-13,14,0,-2,11,5,5,5
RN4220 kill,2.0,3.9,5.6,6.6,0.1,2.2,3.6,2.9
BJeLR lethal,-16,-17,nt,-5,-9,2,nt,3
Mtb hypoxia inh,4,12,4,18,5,7,5,4
Mtb hypoxia inh growth,7,3,7,3,14,-4,5,4
Bead autofluor,2722,3556,3455,12396,3804,5225,3385,3865
PrP 5UTR inh,-17,14,-13,-22,-13,-19,-29,-11

33	CCC(C)C(NC(=O)c1ccccc1NC(=O)c1ccc(OC)cc1)C(=O)NCCCn1ccnc1 (stereo unspecified)
34	COC(=O)[C@H](C)NC(=O)NCc1ccccc1F
35	COc1ccc(CN2CCNC(=O)C2CC(=O)NCCCC2CCCC2)c(F)c1 (stereo unspecified)
36	CCOC(=O)CCCc1ccc(C(C)=NNC(=S)NC)cc1
37	Cc1ccc(NC(=O)CS(=O)CC(=O)Nc2cnc3ccccc3c2)cc1Cl (stereo unspecified)
38	O=C(CCCOc1ccc(Cl)cc1Cl)Nc1ncccn1
39	CCC(CC)NC(=O)C1CC(=O)N(CCc2ccc(F)cc2)C1 (stereo unspecified)
40	Cc1ccc(C(=O)c2c[nH]c(C(=O)NCCCN3CCOCC3)c2)cc1

assay / entry,33,34,35,36,37,38,39,40
ugtP null kill,6,5,-5,6,-8,11,2,-2
RN4220 kill,3.6,-10,1.9,5.0,2.2,3.4,2.2,7.4
BJeLR lethal,0,-7,-7,nt,3,-3,0,2
Mtb hypoxia inh,15,5,0,8,13,12,6,5
Mtb hypoxia inh growth,7,2,3,-4,7,13,7,8
Bead autofluor,3836,2529,6521,nt,3698,nt,3414,8723
PrP 5UTR inh,-11,-1,-4,nt,-27,-20,-6,-21

41	O=C(COc1ccccc1Cl)NCCNC(=O)c1ccccn1
42	Cc1nn(-c2ccc(F)cc2)c(Cl)c1C(=O)N(C)CC(=O)Nc1cccc(F)c1
43	O=C(O)c1ccc(CSc2nnc(-c3ccccc3)n2-c2ccccc2)cc1
44	NC(=O)C(c1ccc(Cl)cc1Cl)c1ncc(C(F)(F)F)cc1Cl (stereo unspecified)
45	Cc1ccc(/C=C/C(=O)Nc2ccccc2C(N)=O)cc1
46	COC(=O)C1=C(C)N(CCCC(=O)O)C(=O)NC1c1cccs1 (stereo unspecified)
47	O=C(CSc1ccc2nnc(-c3ccccn3)n2n1)NCC1CCCO1 (stereo unspecified)
48	COc1ccc(CCNC(=O)CSc2n[nH]c(N)n2)cc1OC

assay / entry,41,42,43,44,45,46,47,48
ugtP null kill,2,0,-6,-5,6,6,3,-1
RN4220 kill,-1.9,2.6,5.0,0.6,4.7,1.4,1.7,0.1
BJeLR lethal,1,0,1,-1,3,1,3,-4
Mtb hypoxia inh,1,-1,-2,5,7,5,3,-8
Mtb hypoxia inh growth,-2,-5,-7,9,4,13,1,-5
Bead autofluor,3642,nt,4182,19681*,2031,3810,5360,6064
PrP 5UTR inh,-17,-13,-26,-18,-95,-7,-31,-6

49	CNC(=S)N1N=C(c2ccc(Br)cc2)CC1c1ccc(OC)cc1 (stereo unspecified)
50	COc1ccc(S(=O)(=O)N2CCCCC2)cc1NC(=O)c1cncc(Br)c1
51	Nc1ccc(NC(=O)CCN2CCOCC2)cc1
52	CCCCN(Cc1ccccc1)S(=O)(=O)c1c(N)n(C)c(=O)n(C)c1=O
53	Cc1ccc(NC(=O)COc2cccc(Oc3ccccc3)c2)cc1S(=O)(=O)N1CCOCC1
54	N#CCC(Cc1ccccc1)N1CCN(CCc2ccccc2)CCC1=O (stereo unspecified)
55	COc1ccccc1C(=O)Oc1ccc(N2C(=O)CCC2=O)cc1
56	CCN(CC(=O)NCc1cccs1)C(=O)CCC(=O)c1ccc(C)cc1

assay / entry,49,50,51,52,53,54,55,56
ugtP null kill,-23,0,5,3,-11,4,1,-3
RN4220 kill,1.7,2.7,-0.9,0.0,-4.3,4.6,1.1,3.4
BJeLR lethal,-2,nt,0,-4,nt,nt,3,-4
Mtb hypoxia inh,-5,19,9,8,10,-1,nt,-2
Mtb hypoxia inh growth,18,12,1,-8,3,-4,nt,2
Bead autofluor,2467,3979,4066,5829,4690,nt,3283,4761
PrP 5UTR inh,-15,-1,-6,-17,-40,nt,-6,8

57	CN(C)CCNC(=O)NC1CCCCC1
58	CCOC(=O)c1sc(NC(=O)CSc2nc(C)cc(C)n2)c(C#N)c1C
59	c1ccc(-c2cc3ccccc3[nH]2)cc1
60	COc1cc(CNCc2cccc(OC)c2OC)cc(OC)c1
61	Cc1cccc(OCCC(=O)NNC(=O)c2ccoc2C)c1
62	CC(NC(=O)COc1ccc(C=NNS(=O)(=O)c2ccccc2)cc1)c1ccccc1 (stereo unspecified)
63	CCOC(=O)C1CCN(C(=O)c2ccc(Cl)c(S(=O)(=O)N3CCCC3)c2)CC1
64	CCOC(=O)N1CCC(NC(=O)c2cc3cc4cc(OC)ccc4nc3o2)CC1
65	CCOC1=CC(=O)OC(c2ccccc2)C1 (stereo unspecified)
66	COc1ccc(/C=C/CN2CCCC(C(=O)c3ccc(OC)c(F)c3)C2)cc1 (stereo unspecified)

assay / entry,57,58,59,60,61,62,63,64,65,66
ugtP null kill,2,-14,0,3,11,-4,-6,6,4,1
RN4220 kill,9.9,-6.0,-0.5,0.9,4.3,0.4,-2.0,1.8,3.3,0.4
BJeLR lethal,0,2,1,-7,nt,nt,-2,5,nt,9
Mtb hypoxia inh,nt,-16,3,-1,6,6,-4,2,7,-13
Mtb hypoxia inh growth,nt,11,6,-2,0,5,8,11,-1,0
Bead autofluor,2270,10260,5727,3089,4609,nt,6134,4555,3988,3739
PrP 5UTR inh,-3,2,-65,-16,-17,nt,-16,0,-12,-8

Of the compounds above, these have a thiophene ring, fused or not.
8	COc1ccc(-c2nn(C)c3sc(C(=O)NCc4ccco4)cc23)cc1OC
11	O=C(CSc1nnc(-c2cccs2)n1-c1ccccc1)NCC1CCCO1 (stereo unspecified)
12	O=C(NCc1cccs1)c1ccc(N2CCCC2=O)cc1
18	COCCN(C(=S)Nc1cccc(OC)c1)C(C)c1cccs1 (stereo unspecified)
21	O=C(NCc1ccco1)c1sc2cc(Cl)ccc2c1Cl
25	Cc1cc(C)c(C(CC(=O)c2cccs2)C(C#N)C#N)c(C)c1 (stereo unspecified)
32	COC(=O)C(Cc1c[nH]c2ccccc12)NC(=O)c1cccs1 (stereo unspecified)
46	COC(=O)C1=C(C)N(CCCC(=O)O)C(=O)NC1c1cccs1 (stereo unspecified)
56	CCN(CC(=O)NCc1cccs1)C(=O)CCC(=O)c1ccc(C)cc1
58	CCOC(=O)c1sc(NC(=O)CSc2nc(C)cc(C)n2)c(C#N)c1C

assay / entry,8,11,12,18,21,25,32,46,56,58
ugtP null kill,-16,-5,7,2,39,-13,5,6,-3,-14
RN4220 kill,13,2.5,-1.2,12,8.2,2.0,2.9,1.4,3.4,-6.0
BJeLR lethal,4,0,-1,-10,-3,-16,3,1,-4,2
Mtb hypoxia inh,3,0,nt,8,-1,4,4,5,-2,-16
Mtb hypoxia inh growth,6,-1,nt,6,9,7,4,13,2,11
Bead autofluor,4448,4039,3598,2011,6686,2722,3865,3810,4761,10260
PrP 5UTR inh,-3,-18,-23,-20,-26,-17,-11,-7,8,2
